CDC25B CDK2 inh = human CDC25B-CDK2/CyclinA binding inhibition. P30305+P24941. HTRF CDC25B-CDK2/CyclinA binding, anti-His/anti-Flag; hits give high values. z-score (no concentration beside the values). actives 0.72% (n = 94,000);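 further: score is relative to mean and SD of negative controls; strong numbers were not always called active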
TAR Tat displ = HIV-1 TAR-Tat binding disruption. HIV-1 TAR RNA, Tat peptide displacement FRET; hits give high values. z-score (concentration not given with the values). actives 0.6% (n = 100,000). AID 1259389;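 further: score is relative to mean and SD of negative controls; some compounds called inactive have numbers as strong as hits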
An asterisk follows results filed as active; nt = not tested or not shown.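 How the source made its calls: active means z-score from 3 up in half or more of its runs; inactive means the rest.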

SMILES	CDC25B CDK2 inh	TAR Tat displ
CCN1CCN(C(=O)C2CCCN(S(=O)(=O)c3ccc4c(c3)oc(=O)n4C)C2)CC1 (stereo not drawn)	-0.2	nt
CC(C)(CNc1nn2cnnc2c2ccccc12)N1CCOCC1	-0.6	-1.6
CCN(CCS(=O)(=O)c1ccc(Cl)cc1)S(=O)(=O)c1ccc(C)cc1	-1.2	nt
CC(=O)N1CC(C)Sc2ccc(S(=O)(=O)N3CCCC3)cc21 (stereo not drawn)	nt	-0.49
CCC1CN(C(=O)N2CCC(C(=O)N3CCN(c4ccccc4)CC3)CC2)c2ccccc2O1 (stereo not drawn)	nt	1.1
CCCc1nn2c(=O)cc(COC(=O)c3cccs3)nc2s1	nt	-1.4
COC(=O)c1cc(C#N)c(Sc2ccc(C(F)(F)F)cc2[N+](=O)[O-])nc1C(OC)OC	-0.53	nt
FC(F)(F)c1nc(N2CCCCC2)nc2c1CCCCC2	0.32	6.8
CN(C)/C=N/C1N=C(C2CC2)N(C)C(=O)N1 (stereo not drawn)	-0.01	nt
COc1ccc(C(=O)c2cnc3ccc(OC)cc3c2S(=O)(=O)c2ccccc2)cc1	-0.64	-1.3
COC(=O)c1cc(S(=O)(=O)N2CCN(C3CCCCC3)CC2)cn1C	-1.2	1.8
CN1C(=O)C(C)(C)c2cc(S(=O)(=O)N3CCN(c4ccc(F)cc4)CC3)ccc21	nt	-0.06
CCOC(=O)c1c(NC(=O)c2nc3ncccn3n2)sc2c1CCC(CC)C2 (stereo not drawn)	-1.2	0.08
CC(=O)N1CCN(c2ccc(OC[C@H]3CO[C@](Cn4ccnc4)(c4ccc(Cl)cc4Cl)O3)cc2)CC1	-1	0.53
Cc1cccnc1-n1c(C)c(C)c2c1ncn1nc(-c3ccccc3Br)nc21	-0.46	0.43
O=C(O)c1cccc(S(=O)(=O)N2CCN(Cc3ccc4c(c3)OCO4)CC2)c1	0.18	-1.4
CC(C)(C)NC(=O)NCc1cccnc1	-0.43	nt
O=C(Nc1ccccc1)N(Cc1c[nH]c2ccccc12)C1CCCCCC1	-1.5	nt
CC(=O)N1N=C(c2cc(C3CC3)nc3ccccc23)OC1c1ccc2c(c1)OCO2 (stereo not drawn)	nt	4.4*
Cc1ccccc1-c1nnc(Cc2ccc(F)cc2Cl)o1	-0.9	1.6
Cc1c(Cl)cccc1Nc1nc2ccccc2c2nnc(C)n12	nt	-0.24
CC(C)N1C(=O)C(O)(CC(=O)c2ccc(Cl)cc2)c2ccccc21 (stereo not drawn)	-1.8	1.1
O=c1c(NCc2cccs2)c(-c2ccccc2)c1=O	nt	1.5
O=C(Nc1ccc2c(c1)oc1ccccc12)C1CCCN1S(=O)(=O)c1ccc(Cl)cc1 (stereo not drawn)	-4.2	nt
Cc1nn(CC(=O)N2CCc3ccccc32)c(C)c1S(=O)(=O)N1CCC(C(=O)N2CCCC2)CC1	nt	1.1

Going on with the list.
SMILES	CDC25B CDK2 inh	TAR Tat displ
Cc1nc(N2CCN(Cc3ccc4c(c3)OCO4)CC2)c2cc(C)sc2n1	-1.7	nt
CC1=NC=CC2NC(=O)C(C#N)=CC12 (stereo not drawn)	-0.35	nt
O=C(Nc1ccc(Cl)cc1)n1nccc1/C=C/c1cccs1	0.95	nt
O=C(CCCN1C(=O)c2cccnc2Sc2ccccc21)Nc1cc(F)ccc1F	nt	0.67
S=C1SCN(Cc2ccncc2)CN1Cc1ccncc1	-2.8	nt
CCc1cc2c3c([nH]c2cc1S(=O)(=O)NCCCOC)CC(C)(C)CC3=O	nt	2.3
O=C(Nc1ccccc1)Nc1ccc(OC(F)F)cc1	0.11	nt
CCOc1ccc(/C=C/c2nc(C#N)c(NCCN(C)C)o2)cc1	-1.6	0.29
O=c1c2cccnc2nc(SCc2cc(=O)n3cc(Cl)ccc3n2)n1Cc1ccc(F)cc1	-2.2	-1.7
CCOC(=O)C1CCN(c2c(N3CCN(Cc4ccc5c(c4)OCO5)CC3)c(=O)c2=O)CC1	-1.3	1.8
CCN(CC)C(=O)NCc1noc2ccccc12	nt	0.14
CC1CC(C)CN(S(=O)(=O)c2ccc3c(c2)oc(=O)n3CC(=O)NC2CCCCC2)C1 (stereo not drawn)	-0.84	1.9
O=C1C(=O)N(c2nccs2)C(c2cccc(Br)c2)/C1=C(\O)c1ccc(Cl)cc1 (stereo not drawn)	0.91	-0.03
CCc1cc2c(N3CCN(C4CCCCC4)CC3)ncnc2s1	nt	1.9
COc1ccc(S(=O)(=O)NCc2csc(-c3cccnc3)n2)cc1	0.38	-0.19
Cc1ccc(C(=O)C2C(c3ccc4c(c3)OCO4)NC(=O)NC2(O)C(F)(F)F)cc1 (stereo not drawn)	-4.4	nt
CN1CCN(CCCNc2ncnc3onc(-c4ccc(Cl)cc4)c23)CC1	-0.04	0.49
O=C(O)CCCc1nnc2c(=O)n(-c3ccc(F)cc3)ccn12	-1.2	1.2
COc1ccc2c(c1)OCC/C2=N\OC(=O)c1ccccc1-c1ccccc1	-1.9	nt
C/C(=N\O)C(C)(C)Nc1cccc(Br)c1	-0.27	nt
Cc1cc(C2CCCN2C(=O)Cn2nc(C(F)(F)F)c3c2CCCC3)on1 (stereo not drawn)	nt	2.2
COCCCNc1nc2ccc(C(=O)c3ccccc3)cc2n2cnnc12	nt	-1.3
CN(C)c1ccc(/C=C/c2nc3ccccc3c(=O)[nH]2)cc1	-2.9	-2.8
O=S(=O)(Nc1cccc2nsnc12)c1cc(Cl)sc1Cl	0.87	nt
CCCCCCCCCCCCCC#CC(O)C(N)CO (stereo not drawn)	-0.42	nt

(continued)
SMILES	CDC25B CDK2 inh	TAR Tat displ
O=C(Cn1c(CN2CCOCC2)nc2ccccc21)N1CCCCC1	-1.3	-0.67
CCOC(=O)c1noc2nc(C)nc(N3CCN(c4ccccc4F)CC3)c12	nt	0.93
Cc1cccc2nc(-c3cccs3)c(NC3CCCCC3)n12	-0.17	-2.3
C=CCn1ccc2cc(S(=O)(=O)N3CCCN(C(=O)NC(C)CC)CC3)ccc21 (stereo not drawn)	nt	0.5
Cc1cc(N2CCC(NC(=O)NC3CCCCC3)CC2)n2ncnc2n1	-1.7	-0.73
Cc1ccc(C(=O)OC2=CC(=O)c3ccccc3C2=O)cc1	-0.25	nt
Cn1cc(NC(=O)NCCN2CCCC2)c2ccccc2c1=O	nt	1.1
CCCOC(=O)C1=C(C)NC2=C(C(=O)CC(C)(C)C2)C1c1ccc(OC)c(OC)c1 (stereo not drawn)	-1.4	1.9
N#C/C(=C\Nc1ccc(Cl)cn1)S(=O)(=O)c1ccccn1	-1.3	nt
Cc1ccc2nc(NCCc3ccc(Cl)cc3)c3nnnn3c2c1	-2.4	-0.09
CC1=C(C(=O)OC(C)C)C(c2cccc(O)c2)n2ncnc2N1 (stereo not drawn)	-1.9	0.28
Cc1cc2c(cc3c(=O)n(CC(=O)NC4CCCCCC4)ncn32)s1	-3.2	nt
COc1ccc(Nc2ncnc3onc(-c4cc(F)cc(F)c4)c23)cc1	nt	1.9
CC1Oc2ccc(C(=O)CCC(=O)O)cc2N(C)C1=O (stereo not drawn)	-2.4	-1.4
COC(=O)c1sccc1NC(=O)Cc1cccs1	-1.3	nt
CC1CC(C)CN(C(=O)C2CCN(C(=O)c3cnn(-c4ccccc4)c3-n3cccc3)CC2)C1 (stereo not drawn)	-1.9	-1.1
Cc1cc(CN2CCCCC2)cc(C)c1O	-3.2	0.75
C=CCOC(=O)c1sc(N2C(=O)c3oc4ccc(F)cc4c(=O)c3C2c2ccccc2F)nc1C (stereo not drawn)	0.67	0.46
COC(=O)c1sc(N2CCCC2)c(C#N)c1N	-0.17	nt
Cn1ncc2c(Nc3ccc(Cl)cc3)nc(NCCN3CCOCC3)nc21	nt	1.5
CS(=O)(=NC(=O)Nc1ccccc1)c1ccccc1 (stereo not drawn)	-0.46	nt
COc1cccc(-c2n[nH]c3c2C(c2cccc(O)c2)N(C)C3=O)c1 (stereo not drawn)	1.1	-1.3
COc1cccc(C2C(C#N)=C(N)OC3=C2C(=O)CC(C)(C)C3)c1OC (stereo not drawn)	-0.34	nt
CN(C)CCOC(=O)c1cnn2c(C(F)(F)F)cc(-c3ccccc3)nc12	0.81	1.3
CCc1ccc(NC2=NS(=O)(=O)C(c3ccc(C)c(C)c3)=C2C)cc1	-1.7	-0.29

Later entries
SMILES	CDC25B CDK2 inh	TAR Tat displ
CSc1cccc(NC(=O)c2cc3c(Cl)ccc4c3n2CCO4)c1	nt	0.07
CC(C)CN(Cc1ccc(Cl)cc1)Cc1cc(=O)c2cc(F)ccc2[nH]1	nt	0.48
Cc1cc(C)c(NC(=O)CSc2nc3c(c(=O)[nH]2)CCC3)c(Cl)c1	-2.2	0.09
Cc1noc(/C=C/c2cccs2)c1S(=O)(=O)N1CCCC(C(=O)NC2CCCC2)C1 (stereo not drawn)	-1.7	0.65
CCOC(=O)CNC(=O)c1cc2c(=O)n3cccc(C)c3nc2s1	0.34	nt
Cc1ccc(S(=O)(=O)n2ncc(Sc3ccc(Cl)cc3)c2C)cc1	-1.4	nt
O=C(O)c1cc(-c2ccc3c(c2)OCO3)nc2cc3c(cc12)OCCO3	0.14	0.3
Cc1cccc2c(=O)c(C(=O)O)c[nH]c12	-1	0.19
O=C(Nc1nc2cc(NS(=O)(=O)c3ccc(F)c(F)c3)ccc2s1)C1CCCCC1	nt	2
COC(=O)c1cccc(NC(=O)C2=NNC(=O)CC2)c1	-1.9	nt
Cc1ccc(CSc2nc3cccnc3n2Cc2cn3ccccc3n2)cc1	nt	-0.36
CN(CC(=O)NC1CCCCC1)S(=O)(=O)c1ccc(-c2ccc(=O)[nH]n2)s1	nt	1.7
Nc1c(C(=O)NCc2ccc3c(c2)OCO3)nnn1Cc1cccc(F)c1	-2.2	nt
CN(C)C=NC(=O)/C(C#N)=C/N(C)C	-1.7	nt
COc1cc(C2CC(=O)NC(C)=C2C(=O)OCC2CCCCC2)c(OC)cc1Br (stereo not drawn)	-0.37	1.5
Cc1cccn2c(=O)c(C(=O)NCCC3=CCCCC3)c(O)nc12	1.2	0.28
COCC(=O)N1CCN(Cc2noc3ccccc23)CC1	nt	22
Cc1ccc(CCNc2c(-c3cc(C)c(C)cc3C)c(=O)c2=O)cc1	nt	-2.5
Cc1cc2c(cc1S(=O)(=O)N(C)Cc1ccccc1)OCCN2C	nt	2.1
CC(=O)Nc1ccc(O)c(C(=O)CC(=O)c2ccccc2)c1	-1.3	nt
COc1ccccc1-c1nnc2sc(-c3ccccc3Br)nn12	-1.5	0.04
O=C(O)CCS(=O)(=O)c1ccccc1	-0.2	-0.66
O=C(Nc1ccc2c(c1)OCCO2)Nc1nnc(CC(=O)N2CCOCC2)s1	nt	0.89
Nc1cc(-c2ccc(Cl)cc2)nn1S(=O)(=O)c1c(F)c(F)c(F)c(F)c1F	-0.81	nt
O=S(=O)(Nc1ccc2c(c1)OCCO2)c1csc(-c2cc(C(F)(F)F)on2)c1	-0.65	nt
COc1ccc(C(=O)Cc2c(O)c3ccccc3oc2=O)cc1	-3	nt
Cc1ccc(S(=O)(=O)NCCn2c(C)nc3cccnc32)cc1	nt	1.4

A section taken from the entries so far, for reference:
SMILES	CDC25B CDK2 inh	TAR Tat displ
CSc1cccc(NC(=O)c2cc3c(Cl)ccc4c3n2CCO4)c1	nt	0.07
CC(C)CN(Cc1ccc(Cl)cc1)Cc1cc(=O)c2cc(F)ccc2[nH]1	nt	0.48
Cc1cc(C)c(NC(=O)CSc2nc3c(c(=O)[nH]2)CCC3)c(Cl)c1	-2.2	0.09
Cc1noc(/C=C/c2cccs2)c1S(=O)(=O)N1CCCC(C(=O)NC2CCCC2)C1 (stereo not drawn)	-1.7	0.65
CCOC(=O)CNC(=O)c1cc2c(=O)n3cccc(C)c3nc2s1	0.34	nt
Cc1ccc(S(=O)(=O)n2ncc(Sc3ccc(Cl)cc3)c2C)cc1	-1.4	nt
O=C(O)c1cc(-c2ccc3c(c2)OCO3)nc2cc3c(cc12)OCCO3	0.14	0.3
Cc1cccc2c(=O)c(C(=O)O)c[nH]c12	-1	0.19
O=C(Nc1nc2cc(NS(=O)(=O)c3ccc(F)c(F)c3)ccc2s1)C1CCCCC1	nt	2
COC(=O)c1cccc(NC(=O)C2=NNC(=O)CC2)c1	-1.9	nt
Cc1ccc(CSc2nc3cccnc3n2Cc2cn3ccccc3n2)cc1	nt	-0.36
CN(CC(=O)NC1CCCCC1)S(=O)(=O)c1ccc(-c2ccc(=O)[nH]n2)s1	nt	1.7
Nc1c(C(=O)NCc2ccc3c(c2)OCO3)nnn1Cc1cccc(F)c1	-2.2	nt
CN(C)C=NC(=O)/C(C#N)=C/N(C)C	-1.7	nt
COc1cc(C2CC(=O)NC(C)=C2C(=O)OCC2CCCCC2)c(OC)cc1Br (stereo not drawn)	-0.37	1.5
Cc1cccn2c(=O)c(C(=O)NCCC3=CCCCC3)c(O)nc12	1.2	0.28
COCC(=O)N1CCN(Cc2noc3ccccc23)CC1	nt	22
Cc1ccc(CCNc2c(-c3cc(C)c(C)cc3C)c(=O)c2=O)cc1	nt	-2.5
Cc1cc2c(cc1S(=O)(=O)N(C)Cc1ccccc1)OCCN2C	nt	2.1
CC(=O)Nc1ccc(O)c(C(=O)CC(=O)c2ccccc2)c1	-1.3	nt
COc1ccccc1-c1nnc2sc(-c3ccccc3Br)nn12	-1.5	0.04
O=C(O)CCS(=O)(=O)c1ccccc1	-0.2	-0.66
O=C(Nc1ccc2c(c1)OCCO2)Nc1nnc(CC(=O)N2CCOCC2)s1	nt	0.89
Nc1cc(-c2ccc(Cl)cc2)nn1S(=O)(=O)c1c(F)c(F)c(F)c(F)c1F	-0.81	nt

Whole records from above. Order of screens: CDC25B CDK2 inh, TAR Tat displ
Shown for `COC(=O)c1cccc(NC(=O)C2=NNC(=O)CC2)c1` = -1.9, nt
Shown for `CSc1cccc(NC(=O)c2cc3c(Cl)ccc4c3n2CCO4)c1` = nt, 0.07

Bioassay records deposited in PubChem by Center for Chemical Genomics, University of Michigan.
